Screening data as filed in PubChem.
Cruzain Triton = qHTS Assay for Promiscuous and Specific Inhibitors of Cruzain (with detergent); 200,000 compounds, 0.43% hits; AID 1478, 2009; Potency, µM, without a hit: max response, negative = inhibition, usual class: inhibitors; Cruzipain (Trypanosoma cruzi), P25779; purified cruzain, Z-FR-AMC fluorescence, 0.01% Triton;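 further: plate controls were neutral wells for no effect and buffer without enzyme for full effect; nearly all actives have a fitted effect of over 40% in size; top concentration of the series not given in the record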
Target sequence (P25779 123-467 limits assumed): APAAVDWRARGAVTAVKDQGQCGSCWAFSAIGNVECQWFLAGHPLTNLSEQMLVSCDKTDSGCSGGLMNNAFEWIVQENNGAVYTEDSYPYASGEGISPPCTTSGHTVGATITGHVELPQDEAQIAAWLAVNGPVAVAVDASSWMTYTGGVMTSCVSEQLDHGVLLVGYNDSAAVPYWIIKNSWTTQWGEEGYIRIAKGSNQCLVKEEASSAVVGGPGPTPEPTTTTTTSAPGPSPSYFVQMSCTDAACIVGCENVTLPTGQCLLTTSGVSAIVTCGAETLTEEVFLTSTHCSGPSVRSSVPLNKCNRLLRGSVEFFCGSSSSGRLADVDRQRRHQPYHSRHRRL
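Read-out: AMC fluorescence (360 nm excitation, 450 nm emission), four reads over 2 min, first-to-third difference used. Conditions: cruzain 1.5 nM, Z-FR-AMC 2 uM, pH 5.5 acetate, 5 mM DTT, 0.01% Triton X-100.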
StopGo reporter = High Throughput Screening for Foot and Mouth Disease Virus Antivirals; human cells with a luciferase reporter of 2A StopGo recoding; control for the full effect not named in the record; Potency, µM (highest dose often 57.9 µM), for the others: at the top dose signal change, negative = less light; 410,000 compounds, 1.2% hits; AID 1159524, 2015; active = well fitted falling curve with a large enough effect; inconclusive = small, poorly fitted or top-dose-only effect; inactive = no such curve, though single readings can be large or run the other way; tested in HEK293T cells; further: on the % scale 0 is the no-effect control and ±100 the full control effect; nearly all actives have a fitted effect of over 45% in size; luciferase light after 4 h
LASV entry inh = qHTS for Inhibitors of binding or entry into cells for Lassa Virus | Potency, µM (doses to about 37.9 µM), for the others: at the top dose activity change, negative = inhibition, usual class: inhibitors | 300,000 compounds, 1.2% hits | AID 540256, 2011 | Lassa virus pseudotype entry inhibition, cell reporter; control for the full effect not named in the record; active means well fitted inhibition curve with a large enough effect; inconclusive means small, poorly fitted or top-dose-only effect, or effect the other way; inactive means flat fitted curve, though single readings scatter; tested in HEK293 cells; further: on the % scale 0 is the no-effect control and ±100 the full control effect; nearly all actives have a fitted effect of over 50% in size; luciferase read-out
Cruzain noTriton = qHTS Assay for Promiscuous and Specific Inhibitors of Cruzain (without detergent) | Cruzipain (Trypanosoma cruzi), P25779 | purified cruzain, Z-FR-AMC fluorescence, no detergent | Potency, µM, for inactives: max response, negative = inhibition, hits mostly inhibitors | 200,000 compounds, 2.3% hits | AID 1476, 2009;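 further: plate controls were enzyme without inhibitor for no effect and buffer without enzyme for full effect; nearly all actives have a fitted effect of over 40% in size; top concentration of the series not given in the record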
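Detergent-free condition (0.00005% Triton X-100) in acetate buffer pH 5.5 with DTT. 1.5 nM enzyme and compound were pre-mixed 15 min, then 2 uM Z-FR-AMC substrate added; reaction progress from fluorescence change between first and third reads (60 s).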
SARS PLP yeast = qHTS of Yeast-based Assay for SARS-CoV PLP; S. cerevisiae expressing SARS-CoV PLpro, growth rescue; control for the full effect not named in the record; Potency, µM (doses to about 32.9 µM), for inactives: at the top dose activity, positive = growth rescue; 330,000 compounds, 0.19% hits; AID 485353, 2010; active means well fitted rising curve with a large enough effect; inconclusive means small, poorly fitted or top-dose-only effect; inactive means no such curve, though single readings can be large or run the other way; further: 0% is about no effect; nearly all actives have a fitted effect of over 55% in size; growth read by luminescence after 48 h
Marburg entry inh = qHTS for inhibitors of binding or entry into cells for Marburg Virus | Marburg virus pseudotyped entry inhibition, cell reporter; control for the full effect not named in the record; about a third of the inactives were read at about 46 µM | Potency, µM (top dose mostly 37.8 µM), without a hit: at the top dose activity change, negative = inhibition, usual class: inhibitors | 300,000 compounds, 1.8% hits; active = well fitted inhibition curve with a large enough effect; inconclusive = small, poorly fitted or top-dose-only effect, or effect the other way; inactive = flat fitted curve, though single readings scatter; tested in HEK293 cells; about a fifth of its hits are not listed in these tables; further: on the % scale 0 is the no-effect control and ±100 the full control effect; luciferase read-out
RE007 growth inh = qHTS Assay for Inhibitors of the HIV-1 protein Vpr; S. pombe RE007 Vpr strain, BacTiter-Glo ATP luminescence, 24 h; control for the full effect not named in the record; Potency, µM (highest dose often 92.2 µM), inactives show at the highest dose activity change, negative = less growth; 360,000 compounds, 0.21% hits; active = well fitted falling curve with a large enough effect; inconclusive = small, poorly fitted or top-dose-only effect; inactive = no such curve, though single readings can be large or run the other way;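 further: on the % scale 0 is the no-effect control and ±100 the full control effect; nearly all actives have a fitted effect of over 50% in size; the assay follows cell death caused by Vpr and the record does not say whether a fall means rescue or toxicity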
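Fission yeast strain RE007, carrying one chromosomally integrated HIV-1 vpr copy, was seeded at OD 0.01 in PMG+AL medium with 23 nL pinned compound. After 24 h at 30 °C and 99% humidity, viability was read by BacTiter-Glo luminescence.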
NS1 inh = qHTS Assay for Inhibitors of Influenza NS1 Protein Function. 270,000 compounds, 0.4% hits. Potency, µM (doses to about 46.1 µM), for the others: at the top dose activity, positive = more growth. S. cerevisiae slowed by influenza A NS1, growth recovery by OD600; active means well fitted rising curve with a large enough effect; inconclusive means small, poorly fitted or top-dose-only effect; inactive means no such curve, though single readings can be large or run the other way; further: nearly all actives have a fitted effect of over 50% in size
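S. cerevisiae expressing influenza A NS1, grown in glucose, washed, then diluted 1:100 into pH 6.0 -URA galactose medium with 23 nl compound. Growth recovery read as OD600; NS1-free strain serves as control.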
Active calls of the source: *; ? = inconclusive; · = no result given; & = joins results of further samples; [ ] = another dose, or the depositor's remark. Unless noted, the call rests on the fitted dose curve; in most records, active means well fitted curve in the direction sought with a large enough effect; inconclusive means small, poorly fitted or top-dose-only effect, or another doubt; inactive means no such curve, though single readings can be large; an effect the other way counts as inactive or inconclusive. Potency means the concentration at half of the fitted maximal effect. An unsorted share of the library. About 4.7% of those tested had a hit in this group.

SMILES	Cruzain Triton	StopGo reporter	LASV entry inh	Cruzain noTriton	SARS PLP yeast	Marburg entry inh	RE007 growth inh	NS1 inh
O=C(COC(=O)C1CC1)Nc1ccc(OC(F)F)cc1	6.1%	0%	7%	-7%	13%	-1%	-4%	-11%
O=C(C1CCC1)N1CCN(c2ccnc3cc(Cl)ccc23)CC1	·	-25%	·	·	1%	·	-9%	-45%
O=C(NCC(c1cccs1)N1CCOCC1)c1ccco1 (stereo unspecified)	3.7%	27%	-4%	-9%	4%	-14%	-3%	-5%
Cc1cccc(N(Cc2nnc3n2CCCCC3)C(=O)Nc2ccccc2)c1	0.2%	9%	12%	-7%	1%	19%	-9%	3%
COc1ccc(NC(=O)Nc2ccncc2)c(OC)c1	·	-12%	1%	·	-1%	8%[46.1 µM]	11%	3%
Cc1ccc(N(Cc2ccccc2)C(=O)c2cc(S(=O)(=O)N3CCOCC3)ccc2F)cc1	·	68%[activator]	?	·	-2%	?	-2%	·
CN(C)c1ccc(CNC(=O)c2cc(S(=O)(=O)N3CCOCC3)cn2C)cc1	·	6%	·	·	3%	·	-1%	5%
O=C(c1ccc2c(c1)OCCO2)N(Cc1cccnc1)c1nc2c(Cl)cccc2s1	0.0%	0%	-20%[46.1 µM]	2%	·	·	·	·
Cc1noc(C)c1COc1ccccc1C(=O)NC(C)c1ccc(F)cc1 (stereo unspecified)	·	-14%	15%	·	·	-8%	-11%	·
COc1ccc(OCC(=O)N/N=C/C=C/c2ccccc2)cc1	-1.9%	13%	?	0%	28%	-2%	-1%	-2%
COc1ccc(S(=O)(=O)NCCc2ccco2)cc1OC	·	56%[activator]	·	·	3%	·	-1%	3.2µM*
COc1ccccc1C(=O)NCC(=O)OCc1ccc(Br)cc1	-19%	-1%	-5%	-11%	-10%	26%	?	-19%
O=C(Nc1ccccc1Cl)C1CCCN(c2ncnc3c2nc2n3CCCCC2)C1 (stereo unspecified)	·	?	?	·	0%	?	5%	-39%
Cc1nn2c(=O)cc(COC(=O)c3ccc(NC(=O)COc4ccc(Cl)cc4)cc3)nc2s1	-1.4%	16µM*	?	0%	·	·	·	·
COc1ccc(NC(=O)c2ccccc2NC(=O)COc2ccccc2)cc1	3.7%	-13%	3%	?	15%	6%	4%	2%
CCCCC(=O)Nc1ncc(S(=O)(=O)c2ccc([N+](=O)[O-])cc2)s1	·	-30%	·	·	2%	·	-2%	4%
CN(C)c1ccc(/C=C/c2c([N+](=O)[O-])c(=O)n(C)c(=O)n2C)cc1	·	10%	·	·	0%	·	6%	-1%
COc1ccc(NC(=O)c2ccccc2NC(=O)CSc2ccc(Cl)cc2)cc1	8.6%	-13%	-15%	13µM*	20%	?	7%	2%
Cc1ccc2c(COC(=O)c3ccc(C)c(C)c3)cc(=O)oc2c1	·	9%	9%[46.1 µM]	·	0%	?	12%	9%
N#CCCOC1(C#CCN2CCCC2)CCCCC1	·	-8%	·	·	-2%	·	11%	-12%
O=C(NCCc1ccc(F)cc1)c1ccc2c(=O)n3c(nc2c1)CCC3	·	35%[activator]	?	·	-4%	?	50%	·
O=C(Cc1ccc(S(=O)(=O)N2CCOCC2)s1)Oc1ccc(F)cc1	·	3%	-1%	·	1%	11%[46.1 µM]	69%	·
CC(C)c1ccc(NC(=O)C(c2ccccc2)N2CCC3(CC2)OCCO3)cc1 (stereo unspecified)	-1.0%	12%	-15%	-4%	4%	-27%	2%	-16%
CCOC(=O)c1c(OCCO)nn(-c2ccc(Cl)cc2)c1N	·	0%	0%	·	2%	2%[46.1 µM]	-15%	·
CCOc1ccc(CCNC(=O)COC(=O)c2cccs2)cc1OCC	·	-17%	15%	·	-6%	-10%	20%	6%
Next part
SMILES	Cruzain Triton	StopGo reporter	LASV entry inh	Cruzain noTriton	SARS PLP yeast	Marburg entry inh	RE007 growth inh	NS1 inh
OCCC#Cc1c(-c2ccsc2)sc2ccccc12	·	2%	·	·	-8%	·	5%	-86%
COc1ccc(-c2nc3ccc([N+](=O)[O-])cc3o2)cc1	-0.8%	20%	2%	-17%	-7%	?	-9%	7%
COc1ccc(CNC(=O)c2cccn2-c2nnc(N3CCCC3)s2)c(OC)c1	1.8%	2%	2%[46.1 µM]	7%	·	·	·	·
Cc1ccc(C(=O)Oc2csc(=S)n2C(=O)c2ccc(C)cc2)cc1	-7.4%	·	-15%	-5%	-45%	5%	-3%	-2%
CC(C)(C)n1c(O)c(C=Nc2ccc3c(c2)CCC3)c(=O)[nH]c1=O	-10%	-12%	-1%	1%	-3%	3%	4%	-73%
CCOC(=O)C1CCN(C(=O)c2cc(S(=O)(=O)N3CCCCCC3)ccc2OC)CC1	·	-4%	-15%	·	1%	21%	3%	·
CCOC(=O)N1CCN(S(=O)(=O)N2CCCC(C(=O)NCc3ccc(OC)cc3OC)C2)CC1 (stereo unspecified)	0.2%	-19%&-5%	3%[46.1 µM]	23%	3%	·	-6%	-3%
COc1ccc(CNC(=O)CC(C)S(=O)(=O)c2ccc3c(c2)NC(=O)CO3)cc1 (stereo unspecified)	·	?	·	·	7%	·	4%	-6%
Cc1ccc(NC(=O)N/C=C/c2ccccc2)cc1	-0.5%	48%[activator]	8%	3%	-4%	16%	-7%	-50%
O=[N+]([O-])c1ccc(S(=O)(=O)NCC(c2cccnc2)N2CCc3ccccc3C2)cc1 (stereo unspecified)	·	0%	?	·	-3%	-11%	-27%	·
Cc1ccc(NC(=O)c2cc(S(=O)(=O)N3CCCc4ccccc43)ccc2F)cc1F	1.0%	?	2%[46.1 µM]	9%	·	·	·	·
CCOc1ccc(N2C(=O)CC(N3CCN(c4ccc(F)cc4)CC3)C2=O)cc1 (stereo unspecified)	·	-14%	·	·	-4%	·	-11%	3%
COc1ccc(N(CC(O)CN2C(=O)NC(C)(C)C2=O)S(=O)(=O)c2ccccc2)cc1 (stereo unspecified)	4.4%	-18%	-1%	6%	5%	-1%	-9%	3%
Cc1c(NC(=O)CSc2nc3ccc(Cl)cc3[nH]2)c(=O)n(-c2ccccc2)n1C	-0.1%	-3%	0%	8%	3%	1%	1%	8%
CCCOc1ccc(Oc2nc(NCC(C)C)nc(N3CCOCC3)n2)nn1	-1.5%	-1%	7%[46.1 µM]	12%	·	-1%[46.1 µM]	·	·
COc1ccc(S(=O)(=O)N2CCOC2CNC(=O)C(=O)NCCCN2CCOCC2)cc1OC (stereo unspecified)	·	4%	2%	·	·	28%	6%	·
COCC(=O)N(Cc1cc2cccc(C)c2[nH]c1=O)c1ccccc1	·	3%	18%[46.1 µM]	·	6%	5%[46.1 µM]	-12%	9%
CC(C)(C)C(=O)/C(=C\c1ccc([N+](=O)[O-])cc1)n1cncn1	-4.8%	·	·	9%	-89%	·	·	-38%
CCC1CCCCN1Cc1ccc(OC)c(C)c1C (stereo unspecified)	2.8%	-11%	17%	0%	3%	0%	13%	3%
COC(=O)c1ccccc1NC(=O)NC1CCN(Cc2ccccc2)CC1	-0.5%	-2%	-12%	-5%	8%	?	1%	1%
Cc1ccccc1OC1C(=O)N(CC2CCCO2)C1c1ccc2c(c1)OCO2 (stereo unspecified)	·	3%	·	·	-1%	·	12%	-3%
CCCCc1ccc(NC(=O)COc2ccc(C(=O)Nc3ccccc3OCC)cc2)cc1	-5.4%	-18%	?	?	-8%	-10%	10%	11%
Oc1ccc(/C=C/c2nc(-c3ccccc3O)n(-c3ccccc3)n2)cc1	-3.1%	-1%	12µM*	15%	-34%	?	?	0%
COc1ccc(/C=N/NC(=O)/C(=C/c2ccccc2)CCO)cc1	-3.6%	25%	-13%	13%	-2%	0%	4%	4%
COc1cc(N=Cc2c(CO)cnc(C)c2O)cc(OC)c1OC	·	-5%	·	·	13%	·	-13%	8%
Later entries:
SMILES	Cruzain Triton	StopGo reporter	LASV entry inh	Cruzain noTriton	SARS PLP yeast	Marburg entry inh	RE007 growth inh	NS1 inh
Cc1cc(N)nc2nc(C(F)(F)F)nn12	·	-14%	4%	·	-6%	7%	-13%	·
Cc1ccccc1N=C1c2ccccc2C(=O)C1[N+](=O)[O-] (stereo unspecified)	·	9%	·	·	-1%	·	8%	8%
O=C(NCC(c1ccco1)N1CCCCC1)c1ccc(OCc2ccccc2)cc1 (stereo unspecified)	·	5%	2%	·	-4%	3%	8%	·
COc1ccc(CC(=O)Nc2ccc(C(N)=O)cc2)cc1	·	-19%	?	·	0%	-1%[46.1 µM]	-2%	?
CC(=O)c1ccc(NC(=O)CCOc2cc(C)ccc2C)cc1	·	28%	-1%[46.1 µM]	·	-4%	16%[46.1 µM]	4%	-30%
CCc1c(C)nc2cc(-c3ccc(OC)cc3)[nH]n2c1=O	4.7%	8%	9%	-2%	0%	17%	1%	3%
N/C(=N\OC(=O)COc1ccc([N+](=O)[O-])cc1)c1cccnc1	·	-10%	-3%	·	1%	29%[46.1 µM]	-1%	·
Cc1cc(OCC(=O)N2CCOCC2)ccc1NC(=O)C1CCCCC1	0.9%	-13%	0%	5%	0%	1%	-8%	?
O=C(Nc1ccccc1C(=O)N1CCN(Cc2ccccc2)CC1)c1ccc(F)cc1	·	-17%	3%	·	-5%	21%	-7%	-1%
CCCCN(C1CCS(=O)(=O)C1)S(=O)(=O)c1ccc(OC)c(OC)c1 (stereo unspecified)	·	2%	-2%	·	2%	23%	-10%	·
Cc1ccc(-n2ncc(C(=O)N3CCN(c4ccccn4)CC3)c2C2CCN(C(=O)OC(C)(C)C)CC2)cc1C	0.1%	-5%	?	-6%	·	·	·	·
O=C(Nc1nnc(CCc2ccccc2)s1)c1ccco1	12%	56%[activator]	3%	?	-6%	33%	-12%	-30%
